# Source: PubChem BioAssay (National Center for Advancing Translational Sciences (NCATS))
# D2 potentiator – potentiates the human D2 dopamine receptor allosterically. P14416. DiscoveRx D2 beta-arrestin cells, luminescence, 90 min; 100% = 57 uM dopamine signal. potentiation, % (test concentration not listed). actives 0.23% (n = 360,000); active = potentiation of 50% or more; inconclusive = 30% to 50%; inactive = 30% or less;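 note: compound concentration not given in the record; tested on top of an EC20 dose of dopamine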
# Target sequence (P14416 whole entry, looked up): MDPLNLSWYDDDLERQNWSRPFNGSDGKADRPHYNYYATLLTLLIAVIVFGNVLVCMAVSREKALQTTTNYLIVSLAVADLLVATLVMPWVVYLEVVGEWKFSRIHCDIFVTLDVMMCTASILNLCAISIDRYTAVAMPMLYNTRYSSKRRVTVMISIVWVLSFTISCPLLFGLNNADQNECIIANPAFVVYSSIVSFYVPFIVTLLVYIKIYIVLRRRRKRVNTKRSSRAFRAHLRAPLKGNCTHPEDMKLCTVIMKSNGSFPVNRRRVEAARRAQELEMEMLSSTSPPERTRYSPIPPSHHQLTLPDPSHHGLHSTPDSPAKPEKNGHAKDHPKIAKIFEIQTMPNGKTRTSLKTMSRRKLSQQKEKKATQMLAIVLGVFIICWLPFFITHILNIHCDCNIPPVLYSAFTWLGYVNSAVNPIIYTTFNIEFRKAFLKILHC
#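 PathHunter D2 cells, attached overnight at 37 deg C, received compound in DMSO plus dopamine at EC20 (50 nM final) for 90 min at 37 deg C. Beta-arrestin recruitment was read as luminescence after 1 h with detection reagent at ambient temperature.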
# TRPML1 agonist – agonists of human TRPML1 channel. actives 0.12% (n = 410,000). activation, % (test concentration not listed). AID 624414. TRPML1-expressing cells, Ca2+ dye fluorescence, FDSS; host cell line not named in the record; reference of the full effect not given here; in the data active = activation above about 50%; inconclusive = about 30% to 50%; inactive = below about 30%; note: 0% is about no effect; the text of the record puts the active cut at 80%
# Target sequence (Q9GZU1 whole entry, looked up): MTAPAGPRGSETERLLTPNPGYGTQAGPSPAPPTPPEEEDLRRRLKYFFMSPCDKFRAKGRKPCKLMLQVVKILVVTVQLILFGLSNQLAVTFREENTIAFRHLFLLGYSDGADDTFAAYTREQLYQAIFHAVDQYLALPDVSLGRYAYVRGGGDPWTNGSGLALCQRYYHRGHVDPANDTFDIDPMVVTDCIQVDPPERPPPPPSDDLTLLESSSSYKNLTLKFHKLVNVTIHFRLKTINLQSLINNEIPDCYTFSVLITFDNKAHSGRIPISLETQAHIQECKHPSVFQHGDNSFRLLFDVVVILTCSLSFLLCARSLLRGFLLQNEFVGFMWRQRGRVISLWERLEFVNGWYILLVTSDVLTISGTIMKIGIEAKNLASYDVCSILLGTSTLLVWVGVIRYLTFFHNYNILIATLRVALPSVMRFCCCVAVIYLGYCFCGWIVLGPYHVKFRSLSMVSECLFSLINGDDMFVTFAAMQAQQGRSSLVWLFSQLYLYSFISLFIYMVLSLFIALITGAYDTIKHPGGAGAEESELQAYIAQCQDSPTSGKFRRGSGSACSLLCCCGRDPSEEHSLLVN
#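 Tet-induced TRPML1-DL cells, 1,500 per well, cultured overnight, were loaded with a no-wash Ca2+ dye for 45–90 min. Calcium fluorescence was recorded on the FDSS for 110 s after compound addition, before the EC80 agonist (4 uM 54-4) was added.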
# TRPML1 blocker – inhibitors of human TRPML1 channel | Q9GZU1 | TRPML1-inducible cells, Ca2+ dye fluorescence, FDSS; hits give low values; inhibition of EC80 agonist-evoked calcium signal | activity change, negative = inhibition, % (test concentration not listed) | actives 0.02% (n = 390,000); in the data active means activity change below about -50%; inconclusive means about -30% to -50%; inactive means above about -30%;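 note: stimulus is agonist 54-4 at its EC80 concentration; % is set by controls: 0 for no effect and ±100 for the full control effect; compound concentration not given in the record; the text of the record puts the active cut at -80%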
#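 TRPML1-DL cells, Tet-induced overnight (~16 h, 37 °C) at 1,500 cells/well, were loaded with Ca8 no-wash dye plus quencher for 45-90 min at room temperature. Compounds were pinned during FDSS kinetic reading; agonist 54-4 at EC80 (4 uM final) then added.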
# TRPV1 potentiator – potentiators of human vanilloid receptor 1 (TRPV1). Q8NER1. TRPV1-expressing cells, Fluo-8 calcium influx, capsaicin EC20 potentiation; host cell line not named in the record; control for the full effect not named in the record. potentiation, % at 8.33 µM. actives 0.02% (n = 320,000); active means potentiation above 80%; inconclusive means 30% to 80%; inactive means below 30%; note: 0% is about no effect
#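 Fluo-8 calcium influx in TRPV1-expressing cells, kinetic read (ex 480/em 520 nm). Compound added and read 3 min for agonist activity, followed by capsaicin at EC20 final and 2 min further read for enhancement.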
# Six1-Eya2 inh – Six1/Eya2 interaction inhibition | Q15475+O00167 | AlphaScreen GST-Six1/His-Eya2 binding, biochemical; hits give low values; control for the full effect not named in the record | activity change, % (no concentration beside the values) | actives 0.56% (n = 360,000) | AID 651725; in the data active = activity change below about -65%; inconclusive = about -30% to -65%; inactive = above about -30%; note: % is set by controls: 0 for no effect and ±100 for the full control effect; compound concentration not given in the record
#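 Homogeneous AlphaScreen proximity assay pairing GST-Six1 with His-tagged Eya2 (added as 5X mix: 250 nM and 500 nM) in 50 mM Tris pH 8.0, 300 mM NaCl, 1 mM TCEP. Glutathione donor and nickel acceptor beads; 1 h, 37 °C, dark.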
# CtBP-E1A inh – CtBP/E1A binding inhibition | AID 651724 | actives 0.49% (n = 340,000) | AlphaScreen GST-E1A/His-CtBP binding, 1536-well; hits give low values; control for the full effect not named in the record | activity change, % (concentration not given with the values); in the data active means activity change below about -65%; inconclusive means about -30% to -65%; inactive means above about -30%; note: % is set by controls: 0 for no effect and ±100 for the full control effect
#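 AlphaScreen with 125 nM GST-E1A and 125 nM His-CtBP (5X stocks) in Tris pH 8.0, 300 mM NaCl, BSA, Tween 20, TCEP. Compounds preincubated 2 h at 37 deg C, then glutathione donor/nickel acceptor beads added for 1 h at 37 deg C in dark.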
# The depositor's hits bear a star; ? = inconclusive; · = not tested or not shown. No enrichment for hits (roughly 0.95% active in at least one column).
cpd	Compound	D2 potentiator	TRPML1 agonist	TRPML1 blocker	TRPV1 potentiator	Six1-Eya2 inh	CtBP-E1A inh
1	O=C(CSc1ncn[nH]1)Nc1nc(-c2cccc([N+](=O)[O-])c2)cs1	-2	·	·	5	-7	-18
2	COc1ccc(Cc2nc3ccc(C(=O)N(C)CCn4ccnc4)cc3o2)cc1OC	-10	-0.2	-5	12	0	-6
3	COc1cccc2sc3ccc(C#CC4(N)CCCCC4)cc3c(=O)c12	-6	-0.8	-6	?	-18	-8
4	C(=C/c1ccnc2nc(SC/C=C/c3ccccc3)nn12)/c1ccccc1	-15	0.6	-2	5	3	-2
5	COC(=O)C(=O)Nc1nnc(COc2ccccc2)s1	-21	0.8	12	2	0	-3
6	N#C/C(=N\Nc1cccc(C(F)(F)F)c1)C(=O)c1ccsc1	-16	1.2	22	0	2	·
7	CCOc1ccccc1/C=N/NC(=O)c1c(C)nc2ccc(Br)cn12	-2	0.2	8	5	-2	-1
8	Cc1ccc(C(=O)O)cc1S(=O)(=O)N1CCCC1	-7	1.0	23	28	2	4
9	COc1cc2c(cc1OC)C(c1ccc(Cl)cc1)CC(=O)N2 (stereo not given)	1	0.5	-25	?	-6	-7
10	CC(C)c1ccc(C(CC(=O)O)NC(=O)c2cccs2)cc1 (stereo not given)	-1	-0.5	0	4	-2	14
11	CCCNC(=O)c1cccc(Cn2nc(C)c(Br)c2C)c1	-13	5.0	-7	-10	2	0
12	CC(SCc1ccccc1)C(=O)N/N=C/c1ccc2c(c1)OCO2 (stereo not given)	1	-1.3	3	-9	-4	-2
13	CCN1CCN(CC(=O)Nc2cc(S(=O)(=O)N(CC)c3ccccc3)ccc2Cl)CC1	-14	0.8	1	·	-5	-4
14	CC(C)NC(=O)C1(C)CCCCN1Cc1ccc(OCc2ccccc2)cc1 (stereo not given)	-3	-0.5	·	·	1	4
15	COC(=O)[C@H]1C[C@H](OC(=O)NCc2ccco2)[C@@]2(O)CN(S(=O)(=O)c3ccc(C)cc3)CC2[C@H]1C(=O)OC (stereo not given in full)	-2	-0.3	-16	·	-2	-1
16	Cc1nc2sc(C(c3ccc(Cl)cc3)N3CCN(C(=O)c4ccco4)CC3)c(O)n2n1 (stereo not given)	-16	-0.7	6	4	1	-2
17	Cc1ccc2c(c1)nnn2C1CCN(CC(=O)NCc2ccccc2F)CC1	-18	-0.7	-5	-1	-3	0
18	CCCC1(CCC)NC(=O)N(CC(=O)c2cc(C)n(-c3ccc4c(c3)OCO4)c2C)C1=O	16	1.0	2	10	-7	-2
19	CC(=O)Oc1ccc2c3c(c(=O)oc2c1)CCCC3	25	·	·	-1	0	·
20	CN(Cc1ccccc1F)C(=O)c1cccc(NC(=O)CC2SC(N3CCCCC3)=NC2=O)c1 (stereo not given)	1	3.7	29	·	12	-6
21	COc1ccccc1OCC(=O)N1CCN(S(=O)(=O)c2ccc(Cl)cc2)CC1	3	-0.4	7	24	1	-5
22	COc1cc(C(=O)NCC(C)C)c([N+](=O)[O-])cc1OC	-10	-0.1	5	26	4	8
23	CCOC(=O)CC(NC(=O)c1cccc2c1C(=O)N(Cc1cccnc1)C2)c1ccc(OCC)c(OC)c1 (stereo not given)	-3	-1.0	-2	-2	-3	2
24	CCOC(=O)N1CCC(NC(=O)Cn2cc3c(n2)CCCC3)CC1	-1	-0.1	9	10	5	4

# Molecules listed so far that have a COOH group (2):
cpd	Compound	D2 potentiator	TRPML1 agonist	TRPML1 blocker	TRPV1 potentiator	Six1-Eya2 inh	CtBP-E1A inh
8	Cc1ccc(C(=O)O)cc1S(=O)(=O)N1CCCC1	-7	1.0	23	28	2	4
10	CC(C)c1ccc(C(CC(=O)O)NC(=O)c2cccs2)cc1 (stereo not given)	-1	-0.5	0	4	-2	14

# Other results follow.
cpd	Compound	D2 potentiator	TRPML1 agonist	TRPML1 blocker	TRPV1 potentiator	Six1-Eya2 inh	CtBP-E1A inh
25	Cc1cc(NC(=O)CSc2nnc(N)s2)c([N+](=O)[O-])cc1C	-1	-1.6	-4	11	-11	-5
26	O=C(CN1C(=O)NC2(CCCCC2)C1=O)N1CCN(S(=O)(=O)c2ccc(Cl)s2)CC1	1	-0.2	-9	1	2	4
27	COc1ccc(N2CCN(CCS(=O)(=O)c3cc(Cl)ccc3Cl)CC2)cc1	-2	-0.6	4	-6	?	-14
28	Nc1cccc2[nH]c(=O)c3ccccc3c12	13	1.5	38	·	-14	-3
29	Oc1nc(Nc2ccccc2)sc1/C=C1\C=Nc2ccccc21	-17	0.2	10	12	-6	-2
30	CCCCCN(C(=O)CCC(=O)OCC(=O)N1C(C)CCCC1C)c1c(N)n(CCCC)c(=O)[nH]c1=O (stereo not given)	-13	-0.5	0	1	1	4
31	COc1ccccc1/C=C/C=N/NC(=O)Cc1cccn1C	-16	0.3	-8	0	-17	0
32	CC(=O)Nc1cccc(/C(C)=N/Nc2nc3ccccc3s2)c1	-2	-0.4	-2	-20	-6	-2
33	COc1cc([N+](=O)[O-])ccc1NC(=O)Cn1ccsc1=N	-16	-0.1	-2	18	-8	7
34	Cc1ccc(Cn2c(CCNc3nc(-c4ccc(Cl)c([N+](=O)[O-])c4)cs3)nc3cc(C(=O)NCCCO)ccc32)cc1	-3	-0.8	5	·	-7	-8
35	COC(=O)C1=C(C)NC(=O)/C1=C\c1cc(C)n(-c2cccc(C)c2)c1C	1	-1.3	-8	8	-5	-2
36	COc1ccc(/C=C/C(=O)Nc2ccc(-c3nnc4n3CCCCC4)cc2)c(OC)c1	1	0.8	15	-11	-23	-14
37	NC(Cc1ccccc1)c1csc(Nc2ccc(C(F)(F)F)cn2)n1 (stereo not given)	-2	-0.2	·	·	10	2
38	Cc1ccc(NC(=O)C(=O)Nc2ccccn2)cc1	-10	-0.6	6	-8	4	14
39	COc1ccc(C(=O)NC(=S)Nc2ccc3oc(=O)ccc3c2)cc1	14	1.0	6	-3	13	-6
40	NC(=O)COc1ccc(C2c3c(oc4ccccc4c3=O)C(=O)N2CC2CCCO2)cc1 (stereo not given)	-7	-0.5	0	-5	1	4
41	O=C(Nc1ccccc1Cl)c1ccc(=O)[nH]n1	-7	0.1	0	10	2	1
42	CN1CCN(Cc2ccc(OCc3ccccc3)cc2)CC1	-13	1.1	2	-1	-2	0
43	O=c1c([N+](=O)[O-])cc(C(F)(F)F)cn1Cc1c(Cl)cccc1Cl	-7	-0.6	-16	·	8	13
44	Cc1oc(-c2ccc(Cl)cc2)cc1C(=O)O	-2	1.6	-9	-3	-6	6
45	Cc1ccn2c(=O)nc(SCC(=O)N3CCC(Cc4ccccc4)CC3)nc2c1	-3	-0.9	33	4	-12	-1
46	Cc1ccc(OCCNC(=O)CCNS(=O)(=O)c2ccc3ccccc3c2)cc1	1	0.1	-19	-1	-14	-15
47	FC(F)(F)c1ccccc1NC(=S)N1CCCCCC1	3	0.1	-9	-1	4	10
48	CCC(CC)C(=O)Nc1cccc(C(=O)Nc2ccc(S(N)(=O)=O)cc2)c1	-4	1.2	18	1	0	-7

# Just CtBP-E1A inh, TRPML1 blocker and TRPV1 potentiator (2 entries from above):
no.	SMILES	CtBP-E1A inh	TRPML1 blocker	TRPV1 potentiator
22	COc1cc(C(=O)NCC(C)C)c([N+](=O)[O-])cc1OC	8	5	26
23	CCOC(=O)CC(NC(=O)c1cccc2c1C(=O)N(Cc1cccnc1)C2)c1ccc(OCC)c(OC)c1 (stereo not given)	2	-2	-2

# Additional compounds
cpd	Compound	D2 potentiator	TRPML1 agonist	TRPML1 blocker	TRPV1 potentiator	Six1-Eya2 inh	CtBP-E1A inh
49	Cc1cccc(C(=O)Nc2ccc(C(=O)Nc3ccc(O)cc3)cc2)c1	-15	0.1	18	4	-4	-1
50	COc1cc(NC(=O)COC(=O)CO/N=C(\C)c2ccc3c(c2)OCO3)cc(OC)c1OC	-16	0.6	-2	3	2	7
51	CC(C)Cn1cnc2c1c(=O)[nH]c(=O)n2Cc1ccccc1	0	-0.3	4	7	6	·
52	Cc1cc(NC(=O)CCCn2nc(C)c([N+](=O)[O-])c2C)no1	-3	-0.8	-1	-4	7	2
53	N#Cc1c(N2CCCCC2)nc(N)c2c(N)nc3c(c12)CC(c1ccccc1)O3 (stereo not given)	-23	-0.5	-13	8	13	9
54	O=C1CCCC(NCCCCCCNC2=C([N+](=O)[O-])C(=O)CCC2)=C1[N+](=O)[O-]	1	0.0	-11	-3	2	5
55	Cc1ccc2c(C)c(C(=O)N3CCC(C(N)=O)(N4CCCCC4)CC3)oc2c1C	-19	0.2	6	·	-10	2
56	CCOc1cc(/C=N/NC(N)=O)cc(Br)c1OCc1ccccc1F	?	0.9	5	6	2	-8

# Single records, from the list above. Values in the order: D2 potentiator	TRPML1 agonist	TRPML1 blocker	TRPV1 potentiator	Six1-Eya2 inh	CtBP-E1A inh
# `Nc1cccc2[nH]c(=O)c3ccccc3c12` is entered as 13	1.5	38	·	-14	-3
# `COC(=O)C(=O)Nc1nnc(COc2ccccc2)s1` is entered as -21	0.8	12	2	0	-3
# `Cc1ccc(Cn2c(CCNc3nc(-c4ccc(Cl)c([N+](=O)[O-])c4)cs3)nc3cc(C(=O)NCCCO)ccc32)cc1` is entered as -3	-0.8	5	·	-7	-8
# `CCOC(=O)N1CCC(NC(=O)Cn2cc3c(n2)CCCC3)CC1` is entered as -1	-0.1	9	10	5	4

# (more compounds)
cpd	Compound	D2 potentiator	TRPML1 agonist	TRPML1 blocker	TRPV1 potentiator	Six1-Eya2 inh	CtBP-E1A inh
57	COc1ccc2c(c1)CCC1C2=NN(/C(C)=C/C(C)=O)C1c1cccc(F)c1 (stereo not given)	12	0.9	-17	23	-4	0
58	OCCC1CN(Cc2cnc(-c3ccccc3)s2)CCN1C1CCCC1 (stereo not given)	-19	2.9	-24	-23	-2	-20
59	Cc1cccc(NC(=O)CCSc2nc(C)cc(C)n2)c1	-13	-0.1	-3	11	8	-1
60	Cn1cccc1C(=O)c1ccc(Cl)cc1Cl	-4	3.2	12	2	-2	7
61	Cn1nnnc1SCc1cccc(CSc2nnnn2C)n1	-8	-0.3	1	18	-1	-1
62	CCN(CC)S(=O)(=O)c1ccc(/C=C/C(=O)OCC(=O)NNC(=O)c2ccc(OC)cc2)cc1	-1	1.3	11	-37	-2	3
